Assay outcomes as filed in PubChem BioAssay.
Mtb bLac sens – beta-lactam sensitization of Mtb H37Rv. inhibition, % at 25 µM. hit rate 0.27% among 330,000. M. tuberculosis H37Rv growth with meropenem, percent inhibition; hits of this screen are not shown here;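 active = about 74% or more and at least 40 points above the plate without the antibiotic, then above 30% in a dose series; inconclusive = first-round hits that could not be retested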;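 also: growth measured after seven days incubation then overnight dye step; 0% = bacteria only wells and 100% = bacteria with antibiotic; twin plates without the antibiotic show which effects depend on it; some results filed as inactive read as strong as hits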
Mtb growth – M. tuberculosis H37Rv growth inhibitors, H37Rv strain (AID 1626). M. tuberculosis H37Rv growth inhibition; higher % means a stronger effect. hit rate 0.95% among 220,000. inhibition, % at 10 µM; hits with a dose series show IC50 in µM;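 active = confirmed in a dose series; inconclusive = inhibition above 80% but not taken into the dose series; inactive = below 80% or under 30% at every dose of the series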;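 also: bacteria incubated seven days before Alamar blue readout; 0% = bacteria only wells and 100% = bacteria with antibiotic wells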
YopH PTP inh – blocks Yersinia enterocolitica YopH tyrosine phosphatase; inhibition, %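 (about 10 µM by stock and volumes)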; fluorescence Ex485/Em525; hit rate 0.16% among 140,000;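 active = inhibition of 50% or more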;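 also: controls were vehicle for no effect and minimum signal wells for full effect; inactives centre near -20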
Arbovirus anti – blocks arbovirus infection; AID 1251; hit rate 0.37% among 200,000; inhibition, % at 10 µM; arbovirus infection cell-based antiviral screen;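 active = inhibition from about 30%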;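 also: bluetongue infection of BSR cells; cell survival read as ATP light after 72 h; 0% = infected wells without compound and 100% = uninfected wells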
RecA splice inh – inhibitors of M. tuberculosis RecA intein splicing. P9WHJ3. cell-free RecA intein splicing, fluorescence. inhibition, %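 (about 9 µM by stock and volumes)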. hit rate 0.75% among 290,000. AID 2221; in the data active = inhibition above about 30%; inconclusive = no clear call, values can overlap the other calls;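 also: 0% = vehicle wells and 100% = reference inhibitor control wells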
Target sequence (P9WHJ3 whole entry, looked up, canonical isoform): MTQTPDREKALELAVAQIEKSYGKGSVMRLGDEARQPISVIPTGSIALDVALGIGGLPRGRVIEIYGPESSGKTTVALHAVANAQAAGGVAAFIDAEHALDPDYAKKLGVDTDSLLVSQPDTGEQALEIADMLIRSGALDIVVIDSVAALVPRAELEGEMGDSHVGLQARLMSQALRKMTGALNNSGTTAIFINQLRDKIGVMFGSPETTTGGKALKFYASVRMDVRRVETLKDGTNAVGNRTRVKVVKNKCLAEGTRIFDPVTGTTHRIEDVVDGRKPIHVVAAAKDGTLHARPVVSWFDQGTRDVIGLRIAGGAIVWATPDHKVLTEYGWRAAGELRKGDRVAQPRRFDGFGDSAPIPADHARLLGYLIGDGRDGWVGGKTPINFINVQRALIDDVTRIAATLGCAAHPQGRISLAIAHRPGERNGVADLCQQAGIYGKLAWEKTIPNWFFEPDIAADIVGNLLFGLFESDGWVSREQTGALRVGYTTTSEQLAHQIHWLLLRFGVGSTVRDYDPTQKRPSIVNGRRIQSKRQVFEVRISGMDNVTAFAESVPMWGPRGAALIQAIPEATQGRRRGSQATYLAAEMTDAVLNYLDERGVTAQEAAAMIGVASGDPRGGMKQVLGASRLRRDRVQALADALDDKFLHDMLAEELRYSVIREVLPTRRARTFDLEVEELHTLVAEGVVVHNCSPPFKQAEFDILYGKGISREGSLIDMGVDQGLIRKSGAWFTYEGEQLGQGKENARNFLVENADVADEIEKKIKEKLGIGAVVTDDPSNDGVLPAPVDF
Starred values were filed as active, the others as inactive; i = inactive; ? = inconclusive; · = not tested or not shown.

SMILES	Mtb bLac sens	Mtb growth	YopH PTP inh	Arbovirus anti	RecA splice inh
S=C(Nc1ccccc1Cl)N(CCN1CCCCC1)Cc1ccco1	1.0	4.3%	-2.4	9.4	-3.1
O=C(Cn1cnc([N+](=O)[O-])c1)NCc1ccc(F)cc1	-13.7	·	-24.4	1.5	-0.4
Cc1cc(NC(=O)CN2CCc3ccccc3C2)nc2c1c(=O)oc1ccccc12	-5.1	·	·	-2.4	4.4
Cc1onc(-c2c(Cl)cccc2Cl)c1/C(N)=N/OC(=O)N(C)C	-4.5	-6.5%	·	·	·
N=c1oc2ccc(Br)cc2cc1C(=O)NC1CCCCCC1	-14.2	·	·	·	0.1
COCCN(CCOC)C(=O)C1CCN(c2ccc(S(=O)(=O)N3CCOCC3)cc2[N+](=O)[O-])CC1	-4.1	·	·	·	-4.6
CCOc1ccc(OCC(=O)Nc2ccccc2N2CCCC2)cc1	-0.7	·	·	·	10.7
Cc1cccc(C(C)C)c1NC(=O)c1ccc(COc2ccc3c(C)cc(=O)oc3c2)cc1	1.6	-1.3%	-25.3	-5.5	-3.1
Cc1nn(Cc2ccc(Cl)c(Cl)c2)c(C)c1NC(=O)c1noc2c1CCCCC2	-0.4	-6.3%	-29.6	-2.8	0.5
CC(C)[C@H](NC(=O)c1cccc(CN(Cc2ccccc2)C(=O)/C=C/c2ccccc2)c1)C(=O)O	4.2	·	·	·	0.1
CCOC(=O)Cn1c(=O)c2c(nc(Br)n2Cc2ccc(Cl)cc2)n(C)c1=O	-3.4	4.9%	·	·	6.5
CCN(CC(=O)NCc1ccco1)S(=O)(=O)c1ccc(F)cc1	-3.9	·	·	·	-0.7
CCOc1cc(C(c2c(C)[nH][nH]c2=O)c2c(C)[nH][nH]c2=O)cc([N+](=O)[O-])c1O	7.7	·	·	·	97.4*
CC(C)NC(=O)CC(=O)N/N=C\c1ccccc1C(=O)O	-0.5	-5.6%	·	4.4	-0.6
CCN(CC)S(=O)(=O)c1ccc(N2CCOCC2)c(NC(=O)COc2ccccc2)c1	2.6	-5.7%	·	-3.8	2.0
COC(=O)c1ccc2[nH]c3c(c2c1)CC(C)CC3 (stereo unspecified)	69.8	·	·	·	-0.7
Oc1ccc(-c2csc(Nc3cccnc3)n2)cc1	-4.5	0.3%	9.7	-1.0	·
O=C(Cn1cncn1)N/N=C/c1cccc(Cl)c1	-2.0	-0.7%	·	·	-0.4
Cc1cc(OCc2cc(C(=O)N(C)CC3CCOCC3)no2)cc(C)c1Cl	9.6	·	·	·	4.5
CN(Cc1nc2ccccc2c(=O)[nH]1)Cc1nc2ccsc2c(=O)[nH]1	91.8	1.95µM*	·	2.1	-4.5
Cn1c(=O)[nH]c(=O)c2c1nc(CN1CCN(c3ccccc3F)CC1)n2CCCc1ccccc1	0.3	-7.5%	-24.9	-8.6	3.6
COc1ccc(NC(=O)C(Cc2ccccc2)n2cccc2)cc1 (stereo unspecified)	-2.4	2.7%	·	·	0.0
COc1ccc(CNC(=O)Nc2ccc(C)cc2C)cc1	-2.2	-7.3%	·	-4.2	-1.7
Cc1ccc(S(=O)(=O)Nc2nc(C)c(NC(=O)OCCCl)s2)cc1	-4.0	·	-9.2	15.1	·
O=C(NCCCN1CCOCC1)c1ccc(Br)cc1Br	·	-2.0%	·	1.3	6.8
CCOC(=O)c1ccc2c(c1)n(CCCS(=O)(=O)[O-])c(/C=C/c1ccc(Cl)cc1)[n+]2CC	-9.9	·	·	·	1.4
CC(C)CC(=O)N1CCC(O)(CS(=O)(=O)Cc2ccccc2)CC1	-16.7	-7.9%	-32.9	4.1	-0.4
Cc1cc(C)cc(OCC(=O)Nc2ccccc2N2CCCCC2)c1	67.3	7.5%	-5.6	10.4	0.6
COC(=O)c1ccc(CN2C(=O)NC(Cc3c[nH]c4ccccc34)C2=O)cc1 (stereo unspecified)	-2.8	·	·	·	2.0
O=C(COc1ccccc1)NCC(c1ccco1)N1CCCCC1 (stereo unspecified)	-3.3	·	·	·	-3.1
Cc1cccc(C)c1NC(=O)CN	-3.8	-8.2%	·	·	-2.2
Cc1ccc(S(=O)(=O)N2CCC(C(=O)Nc3ccccc3N3CCCC3)CC2)cc1	-15.9	·	·	·	-2.7
CCN(C(=O)c1cc2c(=O)[nH]c3ccc(C)cc3c2s1)c1ccc(OC)cc1	15.0	-3.0%	·	·	1.6
CCCCCCCC(=O)N/N=C(\C)c1ccc(N)cc1	-3.5	?	·	-15.5	-0.6
Cn1c(N)c(-c2nc3cccnc3n2C)sc1=S	6.2	2.5%	·	-9.4	-9.2
O=[N+]([O-])c1cc(C(F)(F)F)ccc1NCCCCNS(=O)(=O)c1ccc2ccccc2c1	-6.5	-6.3%	-19.4	-6.6	-7.3
CCOC(=O)c1c2ccc(OCC(=O)NN)cc2n2ccccc12	2.7	-2.9%	·	-18.7	i
CCOC(=O)Nc1ccc(S(=O)(=O)Nc2onc(C)c2C)cc1	-2.4	·	·	·	1.6
COc1cccc(CNS(=O)(=O)c2ccc3c(c2)CCN3C(=O)C2CC2)c1	-2.1	-0.9%	·	-4.3	2.4
COc1ccc(/C=C/C(=O)c2ccc(NC(=O)c3cccs3)cc2)cc1OC	92.2	5.9%	-25.5	-41.1	10.4
CC1CCC(N2CC(=O)N(Cc3ccc4c(c3)OCO4)C(c3ccc(F)cc3)C2=O)CC1 (stereo unspecified)	-5.9	4.0%	-3.2	-16.3	6.0
CCOc1ccccc1N1CCN(C(=O)C(F)(F)F)CC1	3.6	2.4%	5.2	3.1	2.2
O=C1NC(=O)N(Cc2ccco2)C(=O)/C1=C\c1ccc(-c2ccc(F)cc2)o1	·	68.8%	·	·	-0.5
O=C(Cc1ccc(S(=O)(=O)N2CCOCC2)s1)NCC1CCCCC1	-8.7	-10.3%	-26.5	9.0	-0.7
O=C(CN1CCCCCC1)Nc1cc([N+](=O)[O-])ccc1Cl	-3.0	·	·	·	2.5
COc1ccc(C(CNC(=O)c2oc3ccc(C)cc3c2C)N2CCCCC2)cc1 (stereo unspecified)	65.1	·	·	·	2.1
CC(C)C[C@@H]1NC(=O)N(CCN2CCOCC2)C1=O	7.9	2.5%	-17.8	15.0	-1.0
Cc1ccc(NC(=O)c2cccnc2C(=O)Nc2ccc(C)cc2)cc1	1.6	-7.9%	·	-3.9	-0.9
CCOc1ccc(C(=O)Nc2ccc(Cc3ccncc3)cc2)cc1Br	-4.2	-3.7%	·	-29.1	14.3
COc1ccc(C)cc1N(C)C(=O)c1coc(=O)c2ccccc12	-3.9	-6.9%	5.0	5.7	1.0

Next section:
SMILES	Mtb bLac sens	Mtb growth	YopH PTP inh	Arbovirus anti	RecA splice inh
COc1cccc(S(=O)(=O)NCC(=O)N2CCCCCC2)c1	-1.8	·	·	·	-2.2
COc1ccc(-c2nc(CN3CCN(c4cc(C)nc(C)c4)CC3)c(C)o2)c2ccccc12	97.1	-6.0%	·	-35.0	3.7
CCOc1cc(CNc2ccc3c(c2)OCCO3)cc(Br)c1OCC	67.3	4.9%	-24.8	-15.6	5.6
O=C(CN(c1ccc(Cl)cc1)S(=O)(=O)c1ccccc1)N1CCN(c2ccccc2)CC1	5.8	-4.0%	-14.2	-7.0	·
O=C(CSc1ncn[nH]1)Nc1ccc([N+](=O)[O-])cc1Br	3.9	10.6%	-29.7	22.0	-1.6
O=C(Nc1ccccc1)c1csc(-c2ccccc2)n1	-1.2	5.3%	·	10.4	6.8
C=CCNC(=S)Nc1c(N)n(C)c(=O)n(C)c1=O	-8.2	-0.5%	·	·	-5.9
COc1cc(S(=O)(=O)N2CCN(C(=O)c3ccco3)CC2)c(OC)cc1C	-9.0	·	·	·	-2.9
Cc1cccc(NC(=O)CSc2ncnc3c2oc2ccccc23)c1	-5.4	4.3%	-45.8	-15.6	2.1
CCOP(=O)(OCC)C(NC(=O)c1cccc2ccccc12)C(Cl)(Cl)Cl (stereo unspecified)	-4.6	-5.1%	-10.4	4.7	-1.2
COc1ccc(CNC(=O)/C=C/c2ccc(OCCCF)cc2)cc1	-1.8	11.3%	-1.1	5.3	2.5
O=C(NC1CCCCC1)C(c1ccc2ncccc2c1)N(Cc1ccco1)C(=O)c1ccc2c(c1)OCCO2 (stereo unspecified)	93.5	13.5%	-1.8	-32.1	5.3
CCc1ccc(C(=O)NNc2ccc(F)cc2F)cc1	95.1	?	·	·	3.0
COC(=O)c1ccc2nc(-c3ccc4c(c3)OCO4)cn2c1	1.1	2.5%	·	-9.2	-2.2
COc1ccc(CN2CCN(C(C)C(=O)NC(C)c3ccc(F)cc3)CC2)cc1F (stereo unspecified)	-5.2	·	·	·	-0.1
COc1ccc(C(=O)Nc2c(N)nc(SCC(=O)NCC3CCCO3)[nH]c2=O)cc1 (stereo unspecified)	1.9	·	·	·	0.2
CC1CN(C(=O)CN2C(=O)NC3(CCCC3)C2=O)C(=Nc2cccc(S(=O)(=O)N(C)C)c2)S1 (stereo unspecified)	-0.6	·	·	·	1.1
O=C(NC(=S)N1CCOCC1)C12CCC3CC(CC(C3)C1)C2	-5.9	3.3%	-24.1	-1.5	·
CC(C)c1ccc(CN2CCC(Oc3ccc(C(=O)N4CCCC4)cc3)CC2)cc1	1.8	·	·	·	0.7
CCOc1ccc(C(=O)NCC(=O)N2CCN(c3ccccc3O)CC2)cc1	0.7	·	·	·	-1.2

Ordered by formula weight (smallest number first): 5 of the compounds above.
SMILES	Mtb bLac sens	Mtb growth	YopH PTP inh	Arbovirus anti	RecA splice inh
CCc1ccc(C(=O)NNc2ccc(F)cc2F)cc1	95.1	?	·	·	3.0
O=C(NC(=S)N1CCOCC1)C12CCC3CC(CC(C3)C1)C2	-5.9	3.3%	-24.1	-1.5	·
CCOc1ccc(C(=O)NCC(=O)N2CCN(c3ccccc3O)CC2)cc1	0.7	·	·	·	-1.2
COc1ccc(C(=O)Nc2c(N)nc(SCC(=O)NCC3CCCO3)[nH]c2=O)cc1 (stereo unspecified)	1.9	·	·	·	0.2
CC1CN(C(=O)CN2C(=O)NC3(CCCC3)C2=O)C(=Nc2cccc(S(=O)(=O)N(C)C)c2)S1 (stereo unspecified)	-0.6	·	·	·	1.1

(more compounds)
SMILES	Mtb bLac sens	Mtb growth	YopH PTP inh	Arbovirus anti	RecA splice inh
CC1Sc2ccc(C(=O)OCc3ccccc3Cl)cc2NC1=O (stereo unspecified)	2.2	·	·	·	-1.6
O=C(c1ccc2nc[nH]c2c1)N1CCN(c2cccc(C(F)(F)F)c2)CC1	8.4	·	·	·	2.4
CCCC(=O)Nc1c(-c2ccccc2OC)c(=O)c2ccccc2n1C	-2.0	-0.4%	·	·	-0.7
C[C@@H](C(=O)O)[C@H]1C[C@]1(C)[C@H](NC(=O)OCc1ccccc1)c1ccccc1	-10.8	1.6%	-26.0	9.8	0.8
CCN1CCC(=NNC(=O)c2ccc(C)c([N+](=O)[O-])c2)CC1	-8.4	8.7%	-12.8	8.7	·
C[C@H](NC(=O)c1ccccc1)C(=O)Nc1nc(-c2ccccn2)cs1	79.9	?	·	-13.3	6.3
O=C1CSC(c2ccccc2)N1CC(O)c1ccc([N+](=O)[O-])cc1 (stereo unspecified)	-2.6	8.0%	·	8.4	-1.1
O=C(COc1ccc(Cl)cc1Cl)OCn1nnc2ccccc2c1=O	1.9	1.0%	-32.8	2.3	-0.9
CC(=O)Nc1ccc(NC(=O)CSc2nncn2C)cc1	-4.4	·	·	·	1.4
Cc1ccc(C(=O)Nc2ccc(N3CCN(C(=O)c4ccco4)CC3)cc2)c(Cl)c1	57.1	·	·	·	-2.0
Cc1occc1-c1nnc(SCC(=O)NC2CC2)n1C	-12.5	·	·	·	-1.5
O=C(CN1C(=O)C2C3C=CC(C3)C2C1=O)N1CCc2ccccc2C1 (stereo unspecified)	-5.3	-0.8%	-29.7	2.1	1.9
Cc1cc(C(=O)NNc2ccc(C(C)C)cc2)n(C(C)(C)C)n1	88.5	?	·	·	-0.3
CCOc1ccc(CC(=O)Nc2cccc(-c3ccc4nnc(C)n4n3)c2)cc1	-1.2	4.1%	·	-13.5	-0.4
Cc1cc(C)c(OCCNC(=O)c2ccccc2Sc2ccccc2C#N)c(C)c1	45.1	19.2%	-24.9	-14.8	1.8
CCCC(=O)Nc1c(-c2ccccc2)c(=O)c(C)nn1-c1ccc(C)cc1	-5.0	-13.3%	·	·	0.4
CCN1CCSc2ccc(C(=O)NCc3ccccc3F)cc21	2.2	·	·	·	-6.0
Cc1c(Cl)cccc1NC(=O)CCC(=O)NNC(=O)c1ccco1	4.1	-7.8%	-36.3	8.0	3.6
COc1ccccc1NC(=O)c1cc[n+]([O-])cc1	2.3	·	·	·	3.5
CCn1cc(S(=O)(=O)Nc2cc(F)ccc2C)cn1	-2.4	0.3%	·	3.7	10.4
Cc1ccc2c(c1C)NC(C(=O)O)C1CC=CC21 (stereo unspecified)	0.5	-8.7%	·	15.6	11.3
O=C1CC[C@@H](CN(Cc2ccccn2)Cc2nc(Cc3cccc(C(F)(F)F)c3)no2)N1	-0.9	-5.4%	·	-5.2	0.1

This is a subset; the hit share may differ from the screen's.
